Mtb betalactam: beta-lactam sensitization of Mtb H37Rv | M. tuberculosis H37Rv growth with meropenem, percent inhibition; hits of this screen are not shown here | inhibition, % at 25 µM | actives 0.27% (n = 330,000);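 active means about 74% or more and at least 40 points above the plate without the antibiotic, then above 30% in a dose series; inconclusive means first-round hits that could not be retested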;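 further: growth measured after seven days incubation then overnight dye step; 0% = bacteria only wells and 100% = bacteria with antibiotic; twin plates without the antibiotic show which effects depend on it; some results filed as inactive read as strong as hits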
Arbovirus inh: antivirals against arbovirus infection; arbovirus infection cell-based antiviral screen; inhibition, % at 10 µM; actives 0.37% (n = 200,000);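 active means inhibition from about 30%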;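 further: bluetongue infection of BSR cells; cell survival read as ATP light after 72 h; 0% = infected wells without compound and 100% = uninfected wells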
YopH inh: blocks Yersinia enterocolitica YopH tyrosine phosphatase. actives 0.16% (n = 140,000). inhibition, %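 (about 10 µM by stock and volumes)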. AID 898. fluorescence Ex485/Em525;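 active means inhibition of 50% or more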;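 further: controls were vehicle for no effect and minimum signal wells for full effect; inactives centre near -20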
RecA intein inh: blocks M. tuberculosis RecA intein splicing | cell-free RecA intein splicing, fluorescence | inhibition, %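 (about 9 µM by stock and volumes)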 | AID 2221 | actives 0.75% (n = 290,000) | P9WHJ3; in the data active means inhibition above about 30%; inconclusive means no clear call, values can overlap the other calls;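 further: 0% = vehicle wells and 100% = reference inhibitor control wells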
Target sequence (P9WHJ3 whole entry, looked up): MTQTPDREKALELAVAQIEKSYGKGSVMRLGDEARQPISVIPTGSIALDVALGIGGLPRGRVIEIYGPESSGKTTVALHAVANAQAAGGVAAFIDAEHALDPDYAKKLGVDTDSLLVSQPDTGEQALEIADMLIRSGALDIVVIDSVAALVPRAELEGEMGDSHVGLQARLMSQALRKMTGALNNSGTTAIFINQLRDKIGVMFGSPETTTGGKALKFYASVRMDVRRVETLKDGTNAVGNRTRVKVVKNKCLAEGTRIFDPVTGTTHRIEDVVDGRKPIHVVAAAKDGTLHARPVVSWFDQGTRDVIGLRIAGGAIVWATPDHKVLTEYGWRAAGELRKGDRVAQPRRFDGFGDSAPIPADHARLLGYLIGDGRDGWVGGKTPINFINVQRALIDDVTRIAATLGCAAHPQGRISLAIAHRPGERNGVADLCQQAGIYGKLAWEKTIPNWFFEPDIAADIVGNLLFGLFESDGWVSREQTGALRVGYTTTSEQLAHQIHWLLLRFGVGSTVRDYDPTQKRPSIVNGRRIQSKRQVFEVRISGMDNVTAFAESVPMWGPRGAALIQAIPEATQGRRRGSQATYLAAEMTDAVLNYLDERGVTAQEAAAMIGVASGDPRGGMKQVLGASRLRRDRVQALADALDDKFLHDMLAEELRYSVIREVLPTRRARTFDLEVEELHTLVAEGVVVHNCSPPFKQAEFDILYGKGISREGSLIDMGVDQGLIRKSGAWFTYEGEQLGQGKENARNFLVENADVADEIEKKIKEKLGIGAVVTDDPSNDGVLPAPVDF
Mtb H37Rv: M. tuberculosis H37Rv growth inhibitors, H37Rv strain (AID 1626). actives 0.95% (n = 220,000). M. tuberculosis H37Rv growth inhibition; higher % means a stronger effect. inhibition, % at 10 µM; hits with a dose series show IC50 in µM;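 active means confirmed in a dose series; inconclusive means inhibition above 80% but not taken into the dose series; inactive means below 80% or under 30% at every dose of the series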;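 further: bacteria incubated seven days before Alamar blue readout; 0% = bacteria only wells and 100% = bacteria with antibiotic wells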
Arbovirus inh repeat: second read-out of Arbovirus inh, no call of its own (marks repeat the call); inhibition, %; measured here: 10K subset replicate screen; many hits read low in the repeat;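 first of two repeat runs on a subset; 0% = infected and 100% = uninfected wells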
* hit, by the source's call; ? = inconclusive; . = no result given. Only part of the results is shown; count on the stated rates, not on these rows.

SMILES	Mtb betalactam	Arbovirus inh	YopH inh	RecA intein inh	Mtb H37Rv	others
COC(=O)C1=C(c2ccccc2)C[C@@H]2CC[C@H]1N2C(=O)NCc1ccc(C(F)(F)F)cc1	-7	.	.	3.6	13%
Cc1ccc(OCCCOc2cccc3cccnc23)cc1C	87	-9	-24	2.8	49%
O=C(Nc1ccc2ccccc2c1)c1ccc(Br)o1	97	.	.	11	.
Cc1nc(-c2ccc(NC(=O)Cc3ccccc3)cc2)cs1	12	.	.	-5.2	.
Cc1nnc(-c2cnn(C)c2N)n1CCCN(C)C	8	1	.	-1.2	4%
O=C(/C(=C(\[O-])c1ccccc1)[n+]1ccc2ccccc2c1)c1ccc([N+](=O)[O-])cc1	0	2	14	-0.4	1%
CCc1ccc(-c2cc(C)no2)cc1S(=O)(=O)N1CCOc2ccccc21	-3	.	.	5.6	.
CCOC(=O)c1c(C)[nH]c(C2=NNC(=Nc3ccc(OCC)cc3)SC2)c1C	21	-12	-17	.	?
COc1cccc(-c2nnc3sc(-c4ccc(C)cc4)nn23)c1	78	-27	-44	0.4	.
COc1ccc2[nH]c3c(N4CCC(O)(c5cccc(C(F)(F)F)c5)CC4)ncnc3c2c1	100	-30	-15	6.1	35%
CN1CCN(Cc2nc3ccccc3c(=O)n2Cc2nc(-c3ccccc3F)cs2)CC1	5	-17	-34	14	-1%
O=C(O)CC/C(=C\c1ccc(Cl)c([N+](=O)[O-])c1)c1nc2ccccc2s1	1	26	-24	2.3	2%
CCOC(=O)C1CCCN(C(=O)C2CCN(S(=O)(=O)c3cnc[nH]3)CC2)C1 (stereo not drawn)	-4	-2	-20	1.0	-3%
CCCCC(=O)NC(=S)Nc1cccc(C(=O)O)c1	3	0	.	-0.9	6%
CCCCCC(=O)N/N=C/c1ccc(N(C)C)cc1	5	3	-29	0.6	-1%
CC(=O)N1c2ccc(S(=O)(=O)N(C)CC(=O)NC(C)c3ccccc3)cc2CC1C (stereo not drawn)	4	.	.	-1.4	.
CCOC(=O)c1c(CSC(=N)N)n(C)c2cc(Br)c(OC(C)=O)cc12	2	.	.	25	1%
S=C1NCCOCCOCCOCCOCCN1	-1	3	-12	-0.3	5%
CCC(=O)Nc1cccc(C2=NOC3(C2)C[C@H](C(N)=O)N(C(=O)Cc2ccc([N+](=O)[O-])cc2)C3)c1 (stereo partly drawn)	-12	.	.	-1.3	-7%
CCOC(=O)c1c(NC(=S)Nc2ccc(OC)cc2)sc2c1CCCCC2	3	1	-31	2.2	4%
CCC(C)NC(=O)CSc1nc2cc3c(cc2c(=O)n1Cc1ccco1)OCO3 (stereo not drawn)	.	5	.	.	2%
Cc1ccccc1OCC1CN(CN2CCOCC2)C(=O)O1 (stereo not drawn)	11	2	-11	4.8	-5%
COC(=O)c1cn(C)c2ccc(S(=O)(=O)N3CCCCC3)cc2c1=O	.	4	-51	0.4	-3%
O=C(O)COc1ccccc1/C=N/NC(=O)CSc1nc2ccccc2c(=O)n1-c1ccccc1	-7	.	.	-0.8	-5%
O=C(COC(=O)c1cc(S(=O)(=O)N2CCOCC2)cs1)c1ccccc1	9	9	-32	-0.2	-13%
O=C(CSc1nnc(-c2ccc(NS(=O)(=O)c3ccccc3)cc2)o1)NCC1CCCO1 (stereo not drawn)	3	2	-37	-1.5	2%
COc1ccc(-n2c(SCC(=O)Nc3ccc(Cl)cc3)nc(O)c(Cc3ccccc3)c2=O)cc1	-3	.	.	12	.
COc1ccc(-c2csc(NC(=O)CN3C(=O)C4CC=CCC4C3=O)n2)cc1OC (stereo not drawn)	-6	.	.	0.2	.
CCn1cc(Cl)c(C(=O)Nc2cc(C(=O)OC)cc(C(=O)OC)c2)n1	-1	1	.	1.2	-3%
Cc1nn(-c2ccccc2)c(C)c1NC(=O)COC(=O)c1cc([N+](=O)[O-])ccc1NCCO	-7	.	.	2.5	.

16 compounds already listed, arranged by SMILES length, highest first.
SMILES	Mtb betalactam	Arbovirus inh	YopH inh	RecA intein inh	Mtb H37Rv	others
CCC(=O)Nc1cccc(C2=NOC3(C2)C[C@H](C(N)=O)N(C(=O)Cc2ccc([N+](=O)[O-])cc2)C3)c1 (stereo partly drawn)	-12	.	.	-1.3	-7%
Cc1nn(-c2ccccc2)c(C)c1NC(=O)COC(=O)c1cc([N+](=O)[O-])ccc1NCCO	-7	.	.	2.5	.
COc1ccc(-n2c(SCC(=O)Nc3ccc(Cl)cc3)nc(O)c(Cc3ccccc3)c2=O)cc1	-3	.	.	12	.
O=C(O)COc1ccccc1/C=N/NC(=O)CSc1nc2ccccc2c(=O)n1-c1ccccc1	-7	.	.	-0.8	-5%
O=C(O)CC/C(=C\c1ccc(Cl)c([N+](=O)[O-])c1)c1nc2ccccc2s1	1	26	-24	2.3	2%
CCOC(=O)C1CCCN(C(=O)C2CCN(S(=O)(=O)c3cnc[nH]3)CC2)C1 (stereo not drawn)	-4	-2	-20	1.0	-3%
COc1ccc(-c2csc(NC(=O)CN3C(=O)C4CC=CCC4C3=O)n2)cc1OC (stereo not drawn)	-6	.	.	0.2	.
CN1CCN(Cc2nc3ccccc3c(=O)n2Cc2nc(-c3ccccc3F)cs2)CC1	5	-17	-34	14	-1%
CCn1cc(Cl)c(C(=O)Nc2cc(C(=O)OC)cc(C(=O)OC)c2)n1	-1	1	.	1.2	-3%
O=C(COC(=O)c1cc(S(=O)(=O)N2CCOCC2)cs1)c1ccccc1	9	9	-32	-0.2	-13%
COC(=O)c1cn(C)c2ccc(S(=O)(=O)N3CCCCC3)cc2c1=O	.	4	-51	0.4	-3%
CCOC(=O)c1c(NC(=S)Nc2ccc(OC)cc2)sc2c1CCCCC2	3	1	-31	2.2	4%
Cc1ccccc1OCC1CN(CN2CCOCC2)C(=O)O1 (stereo not drawn)	11	2	-11	4.8	-5%
CCCCC(=O)NC(=S)Nc1cccc(C(=O)O)c1	3	0	.	-0.9	6%
CCCCCC(=O)N/N=C/c1ccc(N(C)C)cc1	5	3	-29	0.6	-1%
S=C1NCCOCCOCCOCCOCCN1	-1	3	-12	-0.3	5%

Next part:
SMILES	Mtb betalactam	Arbovirus inh	YopH inh	RecA intein inh	Mtb H37Rv	others
CCCOC(=O)CSC1=C(C#N)C(c2ccccc2Cl)CC(=O)N1 (stereo not drawn)	-7	6	-48	-0.4	.	Arbovirus inh repeat=-8
COCC(C)n1c(C)cc(C(=O)CSc2nnc(N)s2)c1C (stereo not drawn)	-10	2	-23	3.5	-5%
CCCCc1nc(S(=O)(=O)c2ccc(Cl)cc2)c(N2CCOCC2)o1	-9	-1	-25	.	-8%
O=C(Nc1nc2ccccc2s1)c1cc(-c2ccccc2)nn1-c1ccccc1	2	49*	-12	-2.4	-3%
Cc1ccsc1/C=N/NC(=O)c1cc(-c2ccncc2)nc2ccccc12	-7	-9	-13	2.0	-3%
CN(C)C(=O)CN1C(=O)NC2(CCc3ccccc32)C1=O (stereo not drawn)	-7	.	.	-0.8	.
CCN(CC)CCNC(=O)c1ccc(NC(=O)c2cc(-c3ccco3)nc3ccccc23)cc1	6	.	.	-2.0	.
CC(C)N1C2OC(C3OC4C(O3)N(C(C)C)S(=O)(=O)N4C(C)C)OC2N(C(C)C)S1(=O)=O (stereo not drawn)	0	11	-28	1.2	-10%
O=C1NC(=O)C(=Cc2ccc3c(c2)OCO3)C(=O)N1	0	12	.	-2.7	2%
CCc1nc(SCC#N)c(C#N)cc1C	-1	7	.	-1.9	5%
CCCCCOc1ccc(CSc2n[nH]c(C)n2)cc1	7	13	.	0.0	-3%
O=C(NC(=S)N(Cc1ccccc1)c1ccccn1)C1CC1	24	-13	-20	-2.2	-4%
COCc1c(C(=O)OCc2c(C)noc2C)oc2ccccc12	7	3	.	0.1	0%
Cc1cc(C)c(CSc2ncc(-c3ccc([N+](=O)[O-])cc3)[nH]2)c(C)c1	95	-31	-22	0.9	78%
CCc1nnc(NC(=O)CSc2nc(-c3ccc(F)cc3)cc(-c3ccccc3)c2C#N)s1	.	-8	-29	.	6%

For reference, three of the compounds above:
SMILES	Mtb betalactam	Arbovirus inh	YopH inh	RecA intein inh	Mtb H37Rv	others
CN1CCN(Cc2nc3ccccc3c(=O)n2Cc2nc(-c3ccccc3F)cs2)CC1	5	-17	-34	14	-1%
O=C(O)CC/C(=C\c1ccc(Cl)c([N+](=O)[O-])c1)c1nc2ccccc2s1	1	26	-24	2.3	2%
CCOC(=O)C1CCCN(C(=O)C2CCN(S(=O)(=O)c3cnc[nH]3)CC2)C1 (stereo not drawn)	-4	-2	-20	1.0	-3%

(further entries)
SMILES	Mtb betalactam	Arbovirus inh	YopH inh	RecA intein inh	Mtb H37Rv	others
Cc1ccccc1Nc1nc(=O)c2cc([N+](=O)[O-])ccc2s1	-1	5	-52	-3.8	12%
O=S(=O)(NCC(c1cccnc1)N1CCN(c2ccccc2F)CC1)c1cccs1 (stereo not drawn)	-1	5	-54	1.6	8%
COc1ccc(OC)c(Nc2nc3ccc(C)cc3n3cnnc23)c1	9	.	.	-5.1	.
CCN(CC(=O)Nc1ccc2c(c1)OCCO2)C(=O)CSCC(=O)Nc1ccc(C)cc1	-11	.	.	1.4	.
CCOC(=O)Nc1cc(Br)c2c(c1)OCCO2	1	-5	-43	-0.8	2%
COc1ccc(-c2cc(C(=O)O)nc3ccc4ccccc4c23)cc1OC	15	1	.	0.5	8%
COc1ccc(S(=O)(=O)Cc2ccc(C(=O)NCC(OC)OC)o2)cc1	-3	.	.	0.2	.
O=C(N/N=C/c1cccnc1)c1cccc(NC(=O)c2cccc(Br)c2)c1	-1	.	.	0.8	.
O=C(Nc1cc(Br)c(O)c(Br)c1)c1cccc(NC(=O)c2ccco2)c1	7	.	.	16	.
CC12CC3(C)CC(C)(C1)CC(C(=O)NC(=S)N1CCCC1)(C2)C3	-5	4	.	.	2%
Cc1ccc(S(=O)(=O)N2CCN(C(=O)CCC(=O)NCCc3ccc(S(N)(=O)=O)cc3)CC2)c(C)c1	4	7	.	-1.6	-3%
CCOc1cnc(C(=O)NNC(=O)c2ccccc2Br)o1	-7	-4	.	2.2	.
Cc1cccc2cc(C(c3nnnn3C(C)(C)C)N(Cc3ccco3)CC3CCCO3)c(=O)[nH]c12 (stereo not drawn)	5	-4	4	0.8	2%
Cc1cc(=O)oc2cc(NC(=S)NCc3cccnc3)ccc12	97	3	.	-2.1	78%
COc1ccccc1NS(=O)(=O)c1cc(C(=O)NCC(c2ccco2)N2CCCCC2)ccc1C (stereo not drawn)	-3	.	.	0.9	.
O=C(CSc1nccc(=O)[nH]1)Nc1ccccc1Sc1ccccc1	-5	3	.	2.7	8%
Cc1ccccc1NC(=O)c1ccc(OCC(=O)Nc2ccccc2F)cc1	91	6	.	0.4	76µM*
Cc1nn(Cc2ccccc2)c(C)c1NC(=O)CCC(=O)O	-3	12	-22	2.0	-7%
C=CCn1cccc(/C=C/C(=O)c2ccc(C(C)(C)C)cc2)c1=S	99	-37	-23	10	?
CCn1c(CC(=O)Nc2ccc(C)c(Cl)c2)nnc1SCc1ccc(Cl)c(Cl)c1	-2	7	-20	-0.9	1%
COc1ccc(/C=N/Nc2nc3ccccc3s2)cc1O	.	-27	.	0.8	22%
CCCn1c(C)cc(C(=O)COC(=O)c2ccc(Cl)c(S(=O)(=O)N3CCCC3)c2)c1C	-10	5	-51	5.1	1%
CN(C)C(=O)CCSc1nnc(-c2ccncc2)o1	17	6	.	-0.9	3%
C=CCSc1nc2sc3c(c2c(=O)[nH]1)CCC3	-6	2	.	2.0	0%
CCOC(=O)C#CC(CCc1ccccc1)OS(N)(=O)=O (stereo not drawn)	1	.	.	0.8	.
Clc1ccc(-c2cn3cccnc3n2)cc1	-12	-2	-7	1.5	-5%
O=C(Cc1ncc(C(F)(F)F)cc1Cl)N1CCN(c2cccc(Cl)c2)CC1	6	19	-41	2.0	2%
